GIV-Gai inh – inhibitors of GIV GBA-motif binding to rat Galpha-i3; P08753; Galpha-i3/FITC-GIV peptide fluorescence polarization, 90 min; stronger effect = lower value; scaled: aluminum fluoride 0%, vehicle 100%; percent of control (FP), % (no concentration beside the values); 210,000 compounds, 0.42% hits; AID 1224905;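 active means replicate mean at 85% of control or lower, very high polarization wells dropped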;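 further: wells of about 15 µL received 100 nL stock; the first replicate is given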
Target sequence (P08753 whole entry, looked up): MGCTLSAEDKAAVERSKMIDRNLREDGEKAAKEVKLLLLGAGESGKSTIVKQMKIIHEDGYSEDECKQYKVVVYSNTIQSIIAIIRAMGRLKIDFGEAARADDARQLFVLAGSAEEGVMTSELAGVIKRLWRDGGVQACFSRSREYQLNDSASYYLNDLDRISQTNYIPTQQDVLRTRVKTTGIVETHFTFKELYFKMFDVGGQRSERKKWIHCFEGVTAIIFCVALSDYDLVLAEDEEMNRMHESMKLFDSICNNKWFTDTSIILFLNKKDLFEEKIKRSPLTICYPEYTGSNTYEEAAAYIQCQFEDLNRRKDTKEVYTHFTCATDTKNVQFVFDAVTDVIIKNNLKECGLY
Numbers without * were called inactive.

SMILES	GIV-Gai inh
O=S(=O)(c1cc(-c2nnc(C3CC3)o2)co1)N1CCN(C2CCCCC2)CC1	105
COc1ccc(N2CCN(C(=O)c3c[nH]c4ccc(S(=O)(=O)N5CCOCC5)cc4c3=O)CC2)cc1	111
CCCOc1ccc(C2(CNC(=O)Cc3ccc(OC)c(OC)c3)CCCC2)cc1	104
Cc1ccc2c(c1)C=C[C@H]1N2[C@H](C(=O)c2ccccc2)[C@@H](c2ccc(Br)cc2)C1(C#N)C#N	117
CCN1CCN(CC2CCN(S(=O)(=O)c3cc(F)cc(F)c3)CC2)CC1	101
COc1ccc(NC(=O)c2nnc(C3CCN(C(=O)Nc4ccccc4)CC3)s2)cc1	102
COc1ccc(-c2nc(-c3ccc(NC(=O)c4cccs4)cc3)no2)cc1OC	112
COc1ccccc1C1NC(=O)C(=O)/C1=C(\O)c1ccc(Br)cc1 (centres undefined)	107
COc1ccc(N2CCN(C(=O)CNC(=O)Cn3cnc4sc(C)c(C)c4c3=O)CC2)cc1	101
Cc1ccc(CNS(=O)(=O)c2ccc(F)c(C(=O)Nc3ccc(Br)cc3)c2)cc1	110
c1ccc2c(NCCCNc3ncnc4ccccc34)ncnc2c1	109
CCOc1ccccc1N/C(SCc1cccc([N+](=O)[O-])c1)=C(/C#N)C(=O)NCCc1ccc(OC)c(OC)c1	109
CCOC(=O)C1=CN(c2cc(C)ccc2C)C=C(C(=O)OCC)C1c1cc(OC)c(OC)cc1OC	96
Cn1c(=O)n(Cc2cccc(F)c2)c(=O)c2c1ncn2Cc1ccccc1	107
O=C(CSc1nnc(CNC(=O)c2ccco2)n1-c1ccc(F)cc1)Nc1nc2ccccc2s1	106
CC(C)CC(=O)Nc1ccc(Sc2nc3ccccc3n3nnnc23)cc1	102
COC(=O)c1ccc(C(=O)OC)c(NC(=O)c2cc3cc(Cl)ccc3oc2=O)c1	103
CCOc1ccc(C2=NN3C(C2)c2cccc(OCC)c2OC3c2ccc(F)c(F)c2)cc1 (centres undefined)	107
COc1cccc(C2C(N3C(=O)c4ccccc4C3=O)C(=O)N2c2ccc(Cl)cc2C)c1 (centres undefined)	118
CN(C)c1ccc(C2C(C#N)=C(N)OC3=C2C(=O)CC(c2ccccc2)C3)cc1 (centres undefined)	107
COc1ccc(C(=O)Nn2c(SCC(=O)NCc3ccco3)nc3ccccc3c2=O)cc1	111
O=C(CCS(=O)(=O)c1ccc(Cl)cc1)Nc1nc(-c2ccncc2)cs1	99
CCOC(=O)c1c(NC(=O)CSc2nnc(CNC(=O)c3ccco3)n2Cc2ccccc2)sc2c1CCCCC2	110
CCOC(=O)C1=C(C)NC2=C(C(=O)C(C(=O)OCC)C(c3ccc(OC)cc3)C2)C1c1ccc(OC)c(OC)c1 (centres undefined)	102
Cc1ccc(Nc2cc(NCc3ccccc3)c3noc4c3c2C(=O)c2ccccc2-4)cc1	106
O=S(=O)(c1ccc(-c2cn3cc(Cl)ccc3n2)cc1)N1CCOCC1	113
COc1ccc(OC)c(NC(=O)c2sc3nc(C)nc(N4CCCCC4C)c3c2C)c1 (centres undefined)	107
O=C(NCc1c(-c2ccccc2)nc2n1CCS2)c1ccc(Br)cc1	100
CN(CC1(C)CCOCC1)S(=O)(=O)c1cccc(C(F)(F)F)c1	106
COc1ccc(-c2nc(-c3ccc(NC(=O)c4ccco4)cc3)no2)cc1OC	100
O=C(CCN1CCOCC1)Nc1cc(C(=O)Nc2ccc(Cl)cc2)ccc1N1CC2CC(C1)c1cccc(=O)n1C2 (centres undefined)	105
Oc1ccc(C2N(c3ccccc3)CCN2c2ccccc2)cc1Br	104
CN1CCN(c2nc(Cc3ccccc3)nc3sc4c(c23)CCCC4)CC1	103
COc1ccc(Cl)cc1Nc1nnc(-c2cc3cc([N+](=O)[O-])ccc3oc2=O)s1	107
CCCN1CCN(c2ncnc3sc(C(=O)N4CCCCCC4)c(C)c23)CC1	102
CC(=O)N(Cc1ccc2c(c1)CN(C(=O)Nc1ccc(C)c(Cl)c1)CCO2)c1ccc(C)cc1	107
CCOc1ccc(NS(=O)(=O)c2cc(-c3nc(C)c(C)s3)sc2C)cc1	99
CCOC(=O)C1=C(N)N(c2cccc([N+](=O)[O-])c2)C2=C(C(=O)CC(C)(C)C2)C1c1cc(Br)cs1 (centres undefined)	110
CC1(C)CC(=O)C2=C(C1)OC1=C(C(=O)CC(C)(C)C1)C2c1ccc(-c2ccccc2F)o1	116
COc1cc(C2C(C(=O)Nc3ccccc3F)=C(C)NC3=C2C(=O)CC(c2ccccc2)C3)ccc1O (centres undefined)	101
COc1ccc(C2C3C(=O)N(c4ccc(C)cc4)C(=O)C3N3CCCN23)cc1 (centres undefined)	110
O=C(Nc1ccc(-c2noc(-c3ccccc3Br)n2)cc1)c1cccs1	100
O=C(NC1(CCCO)CSCC1O)c1ccccc1 (centres undefined)	115
Cn1c2c(c(=O)n(C)c1=O)C(c1ccc(OC(=O)c3ccc(Br)cc3)cc1)C1C(=O)c3ccccc3C1=N2 (centres undefined)	98
CCOC(=O)CN1C(=O)C(O)(CC(=O)c2ccc(OC)c([N+](=O)[O-])c2)c2ccccc21 (centres undefined)	109
COc1ccc(C(=O)[C@@H]2[C@@H](c3ccc(OC)c(OC)c3)C(C#N)(C#N)[C@H]3C=Cc4ccccc4N23)cc1	122
COc1ccc2oc(=Nc3ccc(C(=O)O)cc3)c(C(=O)Nc3ccccc3)cc2c1	110
CN1CCN(c2nc(-c3ccncc3)nc3c2CCC3)CC1	107
CC(C)c1cc(C2CCCN2C(=O)c2ccsc2)no1 (centres undefined)	100
O=C(NC1CCCCC1)c1cccc(-c2cc(NC3CCCCC3)ncn2)c1	108
Continued:
SMILES	GIV-Gai inh
CCOC(=O)c1ccccc1NC(=O)c1sc2ncn(CC(=O)Nc3ccc(C)c(Cl)c3)c(=O)c2c1C	104
NS(=O)(=O)c1ccc(CCNC(=O)c2ccc3c(=O)n(Cc4ccco4)c(=S)[nH]c3c2)cc1	101
COc1ccc(CCNC(=O)CSc2nc3n[nH]c(C)c3c(=N)n2-c2cccc(Cl)c2C)cc1OC	101
CCS(=O)(=O)c1nc2ccc(NS(=O)(=O)c3ccc(F)c(F)c3)cc2s1	102
CC1(C)CC(=O)C2=C(C1)c1c(ccc3ccccc13)NC2c1ccc(OCc2ccccc2F)cc1 (centres undefined)	105
O=C1c2ccccc2-c2onc3c(N4CCCC4)cc(Nc4ccccc4)c1c23	107
CN(C)CCNc1nc(-c2ccc([N+](=O)[O-])cc2)nc2ccccc12	102
CC(C)CCNC(=O)C1CCCN1C(=O)c1ccc(NS(=O)(=O)c2ccccc2)cc1 (centres undefined)	105
COC(=O)c1ccc(-n2c(/C=C/c3cccc([N+](=O)[O-])c3)nc3ccccc3c2=O)cc1	101
CCCNC(=O)N1CCC(c2nc(C)cs2)CC1	110
O=S(=O)(c1cc(-c2nnc(-c3ccccc3)o2)ccc1F)N1CCN(c2ccccc2)CC1	98
O=C(CCN1C(=O)c2ccccc2C1=O)N1CCC2(CC1)OCCO2	116
Cc1noc2ncnc(NC3CC3)c12	104
CCCn1c(CCc2ccccc2NS(=O)(=O)c2c(C)n[nH]c2C)nc2ccccc21	109
CC1=C(n2nnc([N+](=O)[O-])n2)C(c2cccnc2)C(C#N)=C(N)O1 (centres undefined)	105
COc1ccc(N(CC(=O)Nc2ccc(Cl)cc2C)S(=O)(=O)c2ccc(C)c([N+](=O)[O-])c2)cc1	103
O=[N+]([O-])c1ccc2c(c1)C=C1CCCCC1(N1CCCC1)O2 (centres undefined)	113
O=S(=O)(c1cn(Cc2noc(Cc3ccc(Br)cc3)n2)cn1)N1CCCCC1	105
O=C(COc1ccc2c3c(c(=O)oc2c1)CCCC3)OCc1ccccc1	120
CCOc1ccc(S(=O)(=O)N2CCc3c(c(-c4nnc(SCC)n4CC)nn3C)C2)cc1	104
CC(C)n1cc(S(=O)(=O)N2CCN(c3ccccc3)CC2)c2cccnc21	100
FC(F)(F)c1cccc(-n2cc(-c3ccccc3)c3c(NCCCN4CCOCC4)ncnc32)c1	104
CCCCCCCCOc1ccc(-n2c(-c3ccc(Br)cc3)cn3c4c(=O)n(C)c(=O)n(C)c4nc23)cc1	106
Cc1ccc(-c2noc(C3CCCN3S(=O)(=O)c3ccc(NC(=O)CC(C)C)cc3)n2)cc1 (centres undefined)	99
O=C(c1cccc(-n2c(=S)[nH]c3cc(Cl)ccc3c2=O)c1)N1CCN(Cc2ccc3c(c2)OCO3)CC1	111
CCOc1nc(Nc2nc(-c3ccccc3)cs2)nc(OCC)n1	107
CCOC(=O)c1c(CSc2ccccc2)n(-c2ccccc2)c2cc(Br)c(OC)cc12	108
CCOC(=O)c1cnc(NCc2cccc(OC)c2)c2ccccc12	110
CCn1c(=O)n(CC(=O)NCC2COc3ccccc3O2)c(=O)c2ccccc21 (centres undefined)	105
Cc1nn(-c2ccccc2)c2ccn(CC(=O)N3CCN(c4ccccc4Cl)CC3)c(=O)c12	104
CCC(C)NS(=O)(=O)c1cc(-c2nc(C)cs2)n(C)c1C (centres undefined)	102
CC(C)(C)c1csc(-c2csc(S(=O)(=O)N3CCN(c4ccccn4)CC3)c2)n1	105
CCOC(=O)C1C(=O)C=C(C)C(C(=O)OCC)C1c1ccc(OC)cc1 (centres undefined)	116
CC1(C)c2ssc(=S)c2-c2ccccc2N1C(=O)CN1CCCCC1	114
COC(=O)c1oc2ccc(OC)cc2c1N	105
CCOC(=O)c1c(CN2CCN(c3ccccc3)CC2)n(-c2ccccc2)c2ccc(O)cc12	107
COc1cc(C2C(C#N)=C(N)N(c3cccc(C)c3)C3=C2C(=O)CCC3)cc(OC)c1OC (centres undefined)	106
CCOP(=O)(OCC)C(Nc1cccc(CC)c1)c1cc(Cl)cc(Cl)c1OC (centres undefined)	102
COc1ccc(CCNC(=O)CCn2c(SCC(=O)NCCC3=CCCCC3)nc3ccccc3c2=O)cc1OC	104
COC(=O)Cn1nc2ccc(S(=O)(=O)N3CCSCC3)cn2c1=O	101

5 compounds from above, sorted by the number in GIV-Gai inh, high to low:
Compound	GIV-Gai inh
CCOC(=O)C1C(=O)C=C(C)C(C(=O)OCC)C1c1ccc(OC)cc1 (centres undefined)	116
CC1(C)c2ssc(=S)c2-c2ccccc2N1C(=O)CN1CCCCC1	114
COC(=O)c1oc2ccc(OC)cc2c1N	105
COc1ccc(CCNC(=O)CCn2c(SCC(=O)NCCC3=CCCCC3)nc3ccccc3c2=O)cc1OC	104
CCOP(=O)(OCC)C(Nc1cccc(CC)c1)c1cc(Cl)cc(Cl)c1OC (centres undefined)	102

Ordered by SMILES length (ascending): 6 of the compounds above.
SMILES	GIV-Gai inh
COC(=O)c1oc2ccc(OC)cc2c1N	105
COC(=O)Cn1nc2ccc(S(=O)(=O)N3CCSCC3)cn2c1=O	101
CCOC(=O)C1C(=O)C=C(C)C(C(=O)OCC)C1c1ccc(OC)cc1 (centres undefined)	116
CCOP(=O)(OCC)C(Nc1cccc(CC)c1)c1cc(Cl)cc(Cl)c1OC (centres undefined)	102
COc1cc(C2C(C#N)=C(N)N(c3cccc(C)c3)C3=C2C(=O)CCC3)cc(OC)c1OC (centres undefined)	106
COc1ccc(CCNC(=O)CCn2c(SCC(=O)NCCC3=CCCCC3)nc3ccccc3c2=O)cc1OC	104

Going on with the list:
SMILES	GIV-Gai inh
O=C(NCCc1ccccc1)c1cc(S(=O)(=O)N2CCOCC2)ccc1Sc1ccc(Br)cc1	98
COc1cccc(NS(=O)(=O)c2cc(C(=O)N3CCCCC3)ccc2NCc2ccccc2OC)c1	110
CCCn1nnc2cc(-c3noc(-c4sc(C)nc4C)n3)ccc21	100
CC(=O)Nc1ccc(S(=O)(=O)N2CCCC2c2c(C)noc2C)cc1 (centres undefined)	99
Cc1ccc(Cl)cc1NC(=O)C1CCCN(S(=O)(=O)Cc2ccc(F)cc2)C1 (centres undefined)	102
CCc1ccc(S(=O)(=O)NCc2nc3cccnc3n2Cc2ccccc2)cc1	116
CSc1nnc2n(-c3ccccc3)c(=O)c3c(C)c(C)sc3n12	112
O=C(Nc1cc(Oc2ccc(Cl)cc2Cl)cc([N+](=O)[O-])c1)c1sc2ccccc2c1Cl	106
CCN1C(=O)C(=Cc2ccc(-c3cc([N+](=O)[O-])ccc3Cl)o2)C(=O)N(CC)C1=S	106
COc1ccc(C=Nc2c(C)n(C)n(-c3ccccc3)c2=O)cc1	108
COc1ccc(S(=O)(=O)N2CSC[C@@H]2C(=O)NCCc2csc(C)n2)cc1OC	96
Cc1nnc2ccc(-c3noc(-c4cc(F)ccc4F)n3)cn12	98
COc1ccc(C2CC(=O)Nc3c2c(C)nn3-c2nc3ccccc3[nH]2)cc1Br (centres undefined)	104
CCOc1ccc(C2CC(=O)Nc3c2c(C)nn3-c2ccc3nnc(C)n3n2)cc1OCC (centres undefined)	104
Cc1ccc(-c2nc(CN3CCC(C(=O)Nc4cccc(C)c4)CC3)no2)cc1	104
O=C(C1CCCO1)N1CCN(c2ncnc3c2nnn3-c2ccccc2)CC1 (centres undefined)	96
CCOC(=O)CS(=O)(=O)c1cc2c(cc1NC(=O)C1CC1)n(C)c(=O)c(=O)n2C	104
Cn1nc(-c2ccccc2F)c2cc(C(=O)Oc3ccc4cnccc4c3)sc21	109

An excerpt; the hit share may differ from the screen's.
